# Source: PubChem (National Center for Advancing Translational Sciences (NCATS))
# AmpC inh no det = inhibitors of E. coli AmpC beta-lactamase without detergent | P00811 | AmpC nitrocefin hydrolysis, absorbance 480 nm, no detergent; potencies from a single point are estimates | Potency, µM (highest dose often 28.7 µM), inactives show top-dose activity change, negative = inhibition | 1.8% of 71,000 active; active = falling curve, for most hits resting on a single point; inconclusive = weak or doubtful change; inactive = flat or rising curve; also: % of control where 0% means no effect; about half of the hits show no inhibition at the top dose; a quarter of the inactives give rising signals
# Target sequence (P00811 whole entry, looked up): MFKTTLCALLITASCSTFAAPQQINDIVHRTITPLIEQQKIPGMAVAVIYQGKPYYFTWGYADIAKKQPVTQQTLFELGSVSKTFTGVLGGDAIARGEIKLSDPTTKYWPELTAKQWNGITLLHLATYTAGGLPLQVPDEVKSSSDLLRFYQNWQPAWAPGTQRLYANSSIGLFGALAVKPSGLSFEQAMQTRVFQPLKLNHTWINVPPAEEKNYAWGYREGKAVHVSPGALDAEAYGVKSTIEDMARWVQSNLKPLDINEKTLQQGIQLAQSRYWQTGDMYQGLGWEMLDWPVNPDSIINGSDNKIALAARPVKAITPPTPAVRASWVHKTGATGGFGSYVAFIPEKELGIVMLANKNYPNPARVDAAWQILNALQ
#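 AmpC in 20 mM phosphate buffer pH 7.0 was preincubated 15 min at room temperature with compounds. Nitrocefin (800 uM stock) was then added and hydrolysis followed at 480 nm every 20 s for 4 min.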
# * hit, by the source's call; ? = inconclusive; & = joins results of further samples; [ ] = dose if it differs, or a comment. Potency is read from the fitted curve at half-maximal effect.
compound	AmpC inh no det
CC1(C)Cc2ccccc2-c2nnc(SCC(=O)N3CCN(c4ccccc4)CC3)n21	78%
CSc1oc(-c2ccco2)nc1S(=O)(=O)c1ccc(Br)cc1	3%
Cc1noc(C)c1S(=O)(=O)N1CCC(C(=O)N(C)Cc2ccccc2)CC1	46%
Cc1nc(N)sc1Cc1ccc2c(c1)OCO2	-10%
Cc1cc(NC(=O)C(C)(C)C)no1	9%
O=C(c1ccc(Br)o1)N1CCN(c2ccccc2F)CC1	16%
CC(=O)[O-].CC(=O)[O-].O.O.O.[Pb+2]	5%&1%
COCCNc1ncnc2ccc(-c3ccoc3)cc12	31%
COCCN1C(=O)c2oc3ccccc3c(=O)c2C1c1ccc(OC)c(OC)c1 (stereo unspecified)	-8%
COc1cc2c(=O)n(CC3CCCO3)c(=O)n(CC(=O)Nc3cccc(Cl)c3)c2cc1OC (stereo unspecified)	125%
OC(COc1ccc2ccccc2c1)CN1CCCC1 (stereo unspecified)	0%
Cc1cc(C(=O)CSc2nnc(-c3ccco3)o2)c(C)n1-c1ccc2c(c1)OCCO2	14%
CCOc1ccc(N2CC(C(=O)Nc3ccc(F)cc3F)CC2=O)cc1 (stereo unspecified)	14%
CCOC(=O)c1ccccc1NC(=O)c1ccccc1NS(C)(=O)=O	34%
CCN1C(=O)c2ccccc2S(=O)c2ccc(C(=O)N3CCN(C(=O)c4ccco4)CC3)cc21 (stereo unspecified)	45%
Cc1ccc(N2CC(C)Cn3c2nc2c3c(=O)n(CC(=O)OCc3ccccc3)c(=O)n2C)cc1C (stereo unspecified)	72%
O=S(=O)(NCCCCCCc1ccccc1)c1cccc2c(Cl)cccc12	-20%
COC(=O)c1ccc(NC(=O)Cc2ccccc2)cc1	-17%
CCCn1c(=O)c2ccccc2n2c(SCc3nc4ccccc4s3)nnc12	25%
CCCOc1ccc(-c2nnn(CC(=O)Nc3cccc(C(=O)OC)c3)n2)cc1	-7%
COc1ccc(C(=O)C(Cc2ccccc2)N(C)C)cc1 (stereo unspecified)	17%
CSc1ccc(S(=O)(=O)Nc2ccc(NC(C)=O)cc2)cc1	6%
CCOC(=O)Cc1nn(C)c(=O)c2ccccc12	-11%
O=C(O)CCCn1nc(C(F)(F)F)c2c1CCCCC2	12%

# A second format for 2 compounds above.
> O=C(O)CCCn1nc(C(F)(F)F)c2c1CCCCC2
  AmpC inh no det = 12%

> CCCn1c(=O)c2ccccc2n2c(SCc3nc4ccccc4s3)nnc12
  AmpC inh no det = 25%

# (more compounds)
compound	AmpC inh no det
CC(=O)NC(Cc1ccccc1F)C(=O)NC1CCN(C(=O)c2cnccn2)CC1 (stereo unspecified)	-14%
CCN(Cc1ccccc1)S(=O)(=O)c1ccc(C(=O)Nc2nnc(-c3ccccc3OC)o2)cc1	36%
COCc1cc(C)n(CC(=O)NC(C)c2ccccc2)c(=O)c1C#N (stereo unspecified)	-10%
O=C(NCC(=O)N(Cc1ccccc1)C(C(=O)NC1CCCC1)c1ccco1)c1ccco1 (stereo unspecified)	17%
COc1ccc(CCNC(=O)c2ccc(NS(=O)(=O)c3c(C)noc3C)cc2)cc1OC	-2%
CCOC(=O)C(C(=O)Nc1ccccn1)C1CCCCC1 (stereo unspecified)	3%
CCCn1nc(C(=O)Nc2cccc(C(=O)OC)c2)c2ccccc2c1=O	94%
CCC(CC)C(=O)Nc1cc(C)cc(C)c1	1%

# An excerpt from above in order of SMILES length, ascending.
compound	AmpC inh no det
CCC(CC)C(=O)Nc1cc(C)cc(C)c1	1%
CCOC(=O)C(C(=O)Nc1ccccn1)C1CCCCC1 (stereo unspecified)	3%
COCc1cc(C)n(CC(=O)NC(C)c2ccccc2)c(=O)c1C#N (stereo unspecified)	-10%
CC(=O)NC(Cc1ccccc1F)C(=O)NC1CCN(C(=O)c2cnccn2)CC1 (stereo unspecified)	-14%
O=C(NCC(=O)N(Cc1ccccc1)C(C(=O)NC1CCCC1)c1ccco1)c1ccco1 (stereo unspecified)	17%

# Next part.
compound	AmpC inh no det
CCOC(=O)c1nnn(-c2nonc2N)c1CN(C)C1CCCCC1	19%
Cn1c(N)c(C(=O)CSc2ccc3c(c2)OCCO3)c(=O)n(C)c1=O	3%
O/N=C(/CN(O)/C=C1/C=CC=N1)c1cccs1	-3%
COc1ccccc1NC(=O)CN1CCN(CC(=O)Nc2ccc(OCc3ccccc3)cc2)CC1	133%
Cc1cc(S(=O)(=O)NCCN2CCOCC2)c(C)s1	-7%
Cc1cc(-c2ccc(N3C(=O)CCC3=O)c(C)c2)ccc1N1C(=O)CCC1=O	4%
CCOC(=O)C1CCN(C(=O)Cn2cc3c(n2)CCC(C)C3)CC1 (stereo unspecified)	27%
CCn1c(SCC(=O)Nc2cc(C)on2)nc2sc(C)c(C)c2c1=O	8%
CCCC(=O)N1CCN(c2ccc(NC(=O)c3ccc(Br)o3)cc2)CC1	35%
CCOC(=O)Cc1csc(Nc2c(C)n(C)n(-c3ccccc3)c2=O)n1	-6%
CC1(C)[C@@H](CC(=O)O)CCC[C@@H]1CC(=O)O	0%[5.75 µM]
O=C1c2ccccc2C(=O)N1CCCC(=O)N1CCc2ccccc21	5%
CCOC(=O)N1CCN(c2nc3c(c(=O)[nH]c(=O)n3C)n2Cc2ccccc2Cl)CC1	57%
CCCC(c1nnnn1C(C)(C)CC)N(Cc1ccco1)Cc1cc2ccc(OC)cc2[nH]c1=O (stereo unspecified)	51%
Cc1cc(C(=O)NCc2cccs2)cs1	1%
CCc1c2c(nc3c(C(C)C)cccc13)-c1cccc(=O)n1C2	161%

# More structures follow:
smiles | AmpC inh no det
COc1ccc(C(=O)Nc2nnc(C(F)(F)F)s2)cc1 | 0%
COC[C@@H]1OC(=O)c2coc3c2[C@]1(C)C1=C(C3=O)[C@H]2CCC(=O)[C@]2(C)C[C@@H]1OC(C)=O | -9%
Cc1ccc(NC(=O)c2nnn(-c3cc(C)cc(C)c3)c2N)cc1 | 5%
Cc1ccc2c(Cl)cc(Cl)c(OCC(=O)NC(=O)NCc3ccco3)c2n1 | 24%
N#Cc1cnc(SCC(=O)c2ccccc2)nc1N | -2%
O=S(=O)(CCN(CCS(=O)(=O)C(F)(F)F)CC1CCCO1)C(F)(F)F (stereo unspecified) | 11%
Fc1cc2ncn(Cc3ccccc3)c2cc1F | 10%
CCOC(=O)c1cn(CC)c2cc(N3CCSCC3)c(F)cc2c1=O | 13%
CN(c1ccc(C(=O)Nc2ccccc2C(F)(F)F)cc1)S(C)(=O)=O | 6%
COc1ccc(NC(=O)c2c(NC(=O)CNCc3ccco3)sc3c2CCC3)c(OC)c1 | 3%
Oc1ccc(CNc2ccccc2)c2cccnc12 | 13µM*[single pt active]
c1ccc2c(c1)N1CCN=C1N2CCN1CCCCC1 | 0%
O=c1[nH]c(=O)n(Cc2ccc(F)cc2)c(O)c1C=NCCN1CCCCC1 | 9%
CCCCC(=O)Nc1ccc2c(c1)nc(CCN1CCOCC1)n2C | 36%
CC1(C)CC(=O)c2c(nn(-c3ccccc3)c2N)C1 | 3%
CC(=NCCCN1CCOCC1)c1c(O)n(Cc2ccccc2)c(=O)[nH]c1=O | 7%
CSCCOC(=O)C1=C(C)NC(=O)CC1c1ccccc1Cl (stereo unspecified) | 11%
Cc1nn(-c2ccccc2)c(C)c1NC(=O)c1cccs1 | 5%
c1ccc(C2CO2)cc1 (stereo unspecified) | -24%
CC(=O)c1cccc(NC(=O)NCc2ccco2)c1 | -6%
CCn1c(-c2cc(Br)cc(OC)c2O)nc2cc(S(=O)(=O)N(C)C)ccc21 | 55%
COc1ccccc1-c1noc(-c2cc(OC)c(OC)c(OC)c2)n1 | 153%
COc1ccccc1CNC(=O)CSc1nc(-c2ccccc2)cn1N | 12%
Cc1ccc(C2CC(c3ccccc3OC(F)F)Nc3ncnn32)cc1 (stereo unspecified) | 33%
CC(=O)N1CCc2cc(NC(=O)c3ccc(C)cc3)ccc21 | 13%
Cc1nc(CC(=O)O)c(-c2ccccc2)s1 | -4%
Cc1nc(SCC(=O)c2ccccc2)n[nH]1 | -22%
Cc1n[nH]c(C)c1CCc1nc2c3ccccc3nc(SCC(N)=O)n2n1 | 18%
Cc1cc(C(=O)Nc2c(F)cc(F)cc2Br)c(C)o1 | -10%
CC1CC(=O)C2=C(C1)Nc1ncnn1C2c1ccccc1 (stereo unspecified) | 15%
COC(=O)C1=C(C)NC(=O)CC1c1ccc(C(=O)OC)cc1 (stereo unspecified) | 12%
O=C1C2C3c4ccccc4C(c4ccccc43)C2C(=O)N1Cc1ccco1 (stereo unspecified) | 4%
COCc1cc(=O)[nH]c(/N=C(\N)Nc2ccc(Oc3ccccc3)cc2)n1 | 37%
O=C1CNC(=O)/C1=C\N1CCCCC1 | -4%
COc1ccccc1-c1ccc(C(=O)O)o1 | -8%
Cc1cc2c(s1)c1cnn(CC(=O)NCCc3ccccc3)c(=O)c1n2C | 23%
Cc1cc(C)cc(N2CC34C=CC(O3)C(C(=O)OCC(=O)NCc3ccco3)C4C2=O)c1 (stereo unspecified) | 66%
O=C(Cn1cnc2c(cnn2-c2ccc(Cl)cc2)c1=O)NCCc1ccccc1 | -1%
Cc1cc(C(=O)CSc2nnc(-c3cccs3)o2)c(C)n1-c1ccccc1 | -18%
O=C(O)CCC(=O)c1ccc(Cl)cc1 | 4%[5.75 µM]
Cc1ccc(C(C(=O)NC2CCCCC2)N(CC2CCCO2)C(=O)CNC(=O)c2ccco2)cc1 (stereo unspecified) | 94%
O=C(Nc1nnc(CC(=O)N2CCOCC2)s1)C1COc2ccccc2O1 (stereo unspecified) | 2%
O=C(O)CNC(=O)C1COc2ccccc2O1 (stereo unspecified) | 0%
O=C(Oc1ccccc1)c1cccc2cccnc12 | 2%
[O-][N+](=Nc1ccccc1)c1ccccc1 | -8%
c1ccc(-n2nnnc2NCCc2c[nH]c3ccccc23)cc1 | -18%
CC(=O)N1CCc2cc(S(=O)(=O)NCCC(=O)Nc3ccc4c(c3)OCCO4)ccc21 | -11%
O=S(=O)(Nc1ncn[nH]1)c1ccc2ccccc2c1 | 0%
CCCC[C@@H]1C[C@H]1C(NP(=O)(c1ccccc1)c1ccccc1)c1ccc(Cl)cc1 (stereo partly specified) | 21%
CCOC(=O)Cn1c(=NC(=O)CSC(C)=O)sc2cc(OC)ccc21 | 26%

# Other structures:
smiles | AmpC inh no det
CC(C)(C)NS(=O)(=O)c1cccc2nsnc12 | 5%
Cc1cc(C)c(NC2=NCC(=O)N2C2CCCCC2)c(C)c1 | 39%
CN(C(=O)c1ccncc1)c1nnc(-c2ccccn2)s1 | 1%
CCc1ccc(N2CCN(C(=O)c3ccc(OC)c(OC)c3)CC2)cc1 | 97%
CCc1ccccc1NC(=O)CSc1nnc(-c2ccco2)n1N | 15%
O=C(CN1C(=O)c2ccccc2S1(=O)=O)Nc1ccc(S(=O)(=O)N2CCCC2)cc1 | -4%
CC(C)C(=O)NC(c1ccco1)c1ccc2cccnc2c1O (stereo unspecified) | -4%
COc1cccc(-c2ccc3ncnc(NCc4cnc(C)cn4)c3c2)c1 | 145%
O=C(NCCCN1CCN(c2ccccc2)CC1)Nc1ccccc1C(F)(F)F | 5%
Nc1nc(-c2cccs2)c(NC(=O)c2ccccc2)s1 | -11%

# Compounds listed so far that have a thiophene ring, fused or not (9):
smiles | AmpC inh no det
O/N=C(/CN(O)/C=C1/C=CC=N1)c1cccs1 | -3%
Cc1cc(S(=O)(=O)NCCN2CCOCC2)c(C)s1 | -7%
CCn1c(SCC(=O)Nc2cc(C)on2)nc2sc(C)c(C)c2c1=O | 8%
Cc1cc(C(=O)NCc2cccs2)cs1 | 1%
COc1ccc(NC(=O)c2c(NC(=O)CNCc3ccco3)sc3c2CCC3)c(OC)c1 | 3%
Cc1nn(-c2ccccc2)c(C)c1NC(=O)c1cccs1 | 5%
Cc1cc2c(s1)c1cnn(CC(=O)NCCc3ccccc3)c(=O)c1n2C | 23%
Cc1cc(C(=O)CSc2nnc(-c3cccs3)o2)c(C)n1-c1ccccc1 | -18%
Nc1nc(-c2cccs2)c(NC(=O)c2ccccc2)s1 | -11%

# (cont.)
smiles | AmpC inh no det
O=C(Oc1ccc(-c2nc(-c3ccccn3)no2)cc1)c1ccccc1 | 0%
CC(=O)N1CCCc2cc(S(=O)(=O)NC(C(=O)NC(C)c3ccccc3)C(C)C)ccc21 (stereo unspecified) | 20%
CCC(C)N1C(=O)C2C(C(=O)Nc3cccc(OC)c3)C3C=CC2(O3)C1C(=O)NC1CCCCC1C (stereo unspecified) | 23%
Cc1ccc2oc3c(c(=O)c2c1)C(c1cccc(Br)c1)N(Cc1ccco1)C3=O (stereo unspecified) | ?
COc1cccc2cc(C(=O)N3CCN(C45CC6CC(CC(C6)C4)C5)CC3)c(=O)oc12 | 53%
O=S(=O)(c1ccc(N2CCOCC2)cc1)N1CCOCC1 | -5%
c1ccc(-c2nnc3sc(-c4csc5c4CCCC5)nn23)cc1 | 19%
OC1CCN(c2ncnc3c2nnn3Cc2c(F)cccc2Cl)CC1 | 105%
CCc1nn(CC(=O)O)c(=O)c2ccccc12 | -13%
O=C(/C=C/c1ccc(O)c(O)c1)O[C@@H](C(=O)O)[C@@H](OC(=O)/C=C/c1ccc(O)c(O)c1)C(=O)O | -12%
O=C(NCCNC(=O)c1cccs1)c1ccco1 | 10%
CCCn1c(=O)c2ccccc2n2c(SCC(=O)c3ccccc3)nnc12 | 29%
COc1cc(C2Nc3ccc4ncccc4c3C3=C2C(=O)CCC3)ccc1O (stereo unspecified) | -1%
O=C1CC(c2ccccc2)CC(O)=C1C=NCCCO (stereo unspecified) | 5%
O=C1NC(=O)C(c2ccccc2[N+](=O)[O-])=C1Nc1ccc(O)c(Cl)c1 | -10%&-9%
COCCn1c(SCC(=O)N2CCCC2)nnc1C(C)C | -9%
CCOc1ccccc1N1CCN(S(=O)(=O)CC)CC1 | 16%
Cc1c(NC(=O)CSc2nnc3sc4ccccc4n23)c(=O)n(-c2ccccc2)n1C | 2%
COCCCn1c2nc3ccccc3nc2c2c(=O)n(Cc3ccc(Cl)cc3)c(C)nc21 | 70%
Cc1ccc2cc(C#N)c(N3CCCN(C(=O)C4CCCO4)CC3)nc2c1 (stereo unspecified) | 86%
Cn1c(=O)n(C)c(=O)n(CC(=O)N2CCCCC2)c1=O | -3%

# The list is partial; count on the stated rates, not on these rows.
